Screening data from PubChem.
BJeLR viability = BJeLR cell viability loss; hit rate 0.17% among 300,000; BJeLR (HRASV12) viability, CellTiter-Glo ATP luminescence, 48 h; reference of the scale not given here; inhibition, % (no concentration beside the values); AID 1554;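 active = replicate mean above 50%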;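 also: 50 nL library stock added to about 25 µL; numbers are from one replicate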
Autofluor counter = flagged as autofluorescent in microsphere protease counterscreen; hit rate 3.1% among 360,000; AID 624483; fluorescence intensity (concentration not given with the values); compound autofluorescence counterscreen, microsphere flow cytometry; stronger effect = higher value;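 active = at least 3 SD above the mean of all compounds, about 16000 in these data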;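 also: 100 nL of 1 mM stock went into each well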
ugtP null kill = kills S. aureus RN4220 lacking UgtP | S. aureus RN4220 ugtP deletion, OD600 growth, 16 h; some inactives read as strong as hits | growth inhibition, % (no concentration beside the values) | hit rate 0.54% among 330,000;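 active = z-score under -3 and OD600 up to 0.15 on both plates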;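 also: plate controls were untreated wells for no effect and antibiotic for full effect; wells of about 80 µL received 100 nL stock; the first replicate is given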
Mtb hypoxia inh = reduces hypoxia-regulated biosensor signal in M. tuberculosis; M. tuberculosis hypoxia-regulated fluorescent reporter, fluorescence; fluorescence inhibition, % (concentration not given with the values); hit rate 0.1% among 300,000; AID 1159583;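 active = 35 to 45% if threefold the growth effect, above 45% if 1.5-fold the growth effect; inactive = the rest, general growth blockers included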;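 also: wells of about 50 µL received 100 nL stock; 0% = vehicle wells and 100% = reference inhibitor wells; whole bacteria with a GFP reporter of the hypoxia response; strong numbers were not always called active; many hits fall short of the cut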
Sa RN4220 lethal = kills Staphylococcus aureus RN4220. hit rate 0.33% among 330,000. S. aureus RN4220 growth, OD600, 16 h. AID 1259311. inhibition, % (no concentration beside the values);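 active = z-score of -3 or lower and OD600 up to 0.18 on both plates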;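 also: plate controls were untreated cells for no effect and reference antibiotic for full effect; stock transfer was 100 nL into about 80 µL; one replicate is shown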
PrP 5UTR inh = inhibition of PrP 5' UTR reporter expression. cell-based PrP 5' UTR mRNA reporter, plate reader. inhibition, % (test concentration not listed). hit rate 0.35% among 340,000;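 active = every replicate at 50% or more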;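 also: 0 = median of the neutral control wells; tested in H4 reporter cells; numbers are from one replicate; inactives centre near -14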
Mtb hypoxia inh growth = second read-out of Mtb hypoxia inh, no call of its own (marks repeat the call); growth inhibition, %; measured here: M. tuberculosis growth (absorbance);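 0% = vehicle and 100% = reference antibiotic; read after six days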
Active calls of the source: *; · = not tested or not shown.

SMILES | BJeLR viability | Autofluor counter | ugtP null kill | Mtb hypoxia inh | Mtb hypoxia inh growth | Sa RN4220 lethal | PrP 5UTR inh
CCC(C(=O)NCc1ccccc1OC)n1nc(C)n2c(cc3occc32)c1=O (stereo unspecified) | -5.1 | 3727 | -4.3 | 14.8 | 6.9 | 3.0 | -9.8
COc1ccc(NC(=O)CC(NCc2ccccn2)C(=O)O)cc1 (stereo unspecified) | -0.8 | 2568 | 9.1 | 13.1 | 4.6 | 5.3 | -13.6
CCCCC1(C(=O)OC)NC(c2ccc(O)cc2)C2C(=O)N(c3ccccc3)C(=O)C21 (stereo unspecified) | 3.9 | 3011 | 15.3 | 6.1 | 1.3 | 3.4 | -22.9
Cc1ccc(C(=O)Nc2cccc(C(F)(F)F)c2)cc1NC(=O)c1c[nH]c2cc(C(F)(F)F)ccc2c1=O | · | 3494 | 0.0 | 1.1 | 9.1 | 0.2 | -19.1
Cc1[nH]n2c(=O)cc(-c3ccc([N+](=O)[O-])cc3)nc2c1-c1ccccc1 | 6.8 | 4738 | 75.5 | · | · | 86.4* | -8.8
COc1ccc(CN2CCC(n3nccc3NC(=O)C3CC3)CC2)c(OC)c1OC | 2.9 | 5211 | 14.1 | 14.7 | 6.2 | 3.0 | -5.7
C#CCOCCOCCOCCNc1nc(N2CCN(C(=O)[C@H](C(C)C)n3cc(CCO)nn3)CC2)nc(N2CCN(C(=O)[C@H]([C@@H](C)CC)n3cc(CCCCN)nn3)CC2)n1 | 3.5 | 2942 | · | · | · | · | -1.2
COC(=O)c1[nH]c2cccc(OC)c2c1NC(=O)CN1CCC(C(N)=O)(N2CCCCC2)CC1 | -1.5 | 5859 | -2.3 | 20.6 | 11.2 | 4.3 | -22.9
CCC(C(=O)NC1CCCCC1)N(Cc1cccs1)C(=O)c1snc(C(N)=O)c1N (stereo unspecified) | -0.3 | 4180 | -9.3 | -6.5 | 2.5 | -1.8 | -44.1
CCCCNC(=O)CS(=O)Cc1nc(-c2ccc(C)cc2)oc1C (stereo unspecified) | 4.3 | 6312 | 2.8 | 1.9 | 2.6 | 1.6 | -13.9
CC(=O)N1CCN(c2ccc([N+](=O)[O-])c(NCc3cccnc3)c2)CC1 | 4.5 | 3520 | 5.4 | -5.8 | -0.2 | 3.4 | -3.9
COc1cccc(NC(=O)NC2CCN(Cc3nnnn3Cc3ccc(F)cc3)CC2)c1 | -4.5 | 10898 | -1.7 | -2.3 | -2.0 | 4.0 | -10.9
Oc1ccc(Cl)cc1C=Nc1nccs1 | · | · | -1.4 | 6.1 | 17.6 | 7.6 | ·
CSc1ccccc1N=CC1=C(O)CC(C)(C)CC1=O | 1.7 | 9803 | 1.0 | 5.6 | 1.5 | 1.0 | -9.7
Cc1cc(=O)c(C(=O)O)nn1-c1cccc(C(F)(F)F)c1 | -0.6 | 3840 | -4.5 | 15.1 | 7.6 | 4.9 | -15.1
O=C(C1=C(O)C(=O)N(Cc2ccco2)C1c1ccccc1F)c1cccs1 (stereo unspecified) | 2.8 | 2555 | 0.1 | -3.4 | -9.7 | 10.3 | -11.4
CC(C)[C@H](NS(=O)(=O)c1ccc2c(c1)OCCO2)C(=O)OCC(=O)Nc1cccc(Cl)c1Cl | 0.8 | 2113 | 2.2 | 9.1 | 4.8 | 7.4 | -38.0
CCOCCCNC(=O)C(NC(=O)CNC(C)=O)c1ccc(C)cc1 (stereo unspecified) | -1.7 | 6518 | 5.7 | 14.7 | 8.2 | 3.9 | -21.9
O=S(=O)(c1ccc2ccccc2c1)N1CCN(C(=S)Nc2ccccc2F)CC1 | -3.1 | 4577 | 7.3 | 3.4 | -4.9 | 0.8 | -12.1
COc1ccccc1/C=C/C=N/NC(=O)CCC1C(=O)NN=C1C (stereo unspecified) | -1.1 | 2238 | · | · | · | · | -12.0
O=C(N/N=C/c1ccc(-c2ccccc2[N+](=O)[O-])o1)c1cccnc1 | -12.6 | 4069 | · | · | · | · | -14.6
Cc1cc(C)cc(NC(=O)N2CCCN(Cc3c(F)cccc3Cl)CC2)c1 | 0.1 | 4447 | 4.4 | 6.2 | -0.7 | 2.1 | -14.6
CCC(=O)NN=C(C)CC(=O)Nc1cc(Cl)ccc1C | · | · | -0.3 | 10.8 | 10.9 | 4.2 | ·
COC(=O)c1ccc(C)c(NS(=O)(=O)c2cn(C)nc2C)c1 | -4.5 | 5970 | -3.8 | -8.3 | 5.4 | -1.6 | 4.0
Cc1cc(C)n(-c2nc3sc4c(c3c3nnc(SC(C)C)n23)CC(C)(C)OC4)n1 | · | 4751 | -5.3 | · | · | -6.3 | -12.2
CC(=O)Oc1ccc(N(C(C)=O)S(=O)(=O)c2ccc(Cl)cc2)c2ccccc12 | 2.6 | 3856 | -2.0 | 2.7 | 10.9 | 5.9 | -5.5
O=C(C1=C[C@H](c2coc3ccccc3c2=O)C[C@H](OCc2ccc(CO)cc2)O1)N1CCOCC1 | -5.5 | 3029 | · | · | · | · | -10.0
CC(C)CC(NC(N)=O)C(=O)NCc1ccccc1Cl (stereo unspecified) | 8.3 | 4825 | 1.0 | 4.3 | 3.1 | 2.3 | 1.2
CCNC(=O)c1ccc(NC(=O)CC2SC(N3CCCCC3)=NC2=O)cc1 (stereo unspecified) | · | 3939 | 2.7 | 9.0 | 5.3 | 2.9 | -14.9
CCC(C)NC(=S)N1CCN(Cc2ccccc2)CC1 (stereo unspecified) | -4.1 | 2373 | 7.0 | 2.3 | 1.8 | 5.9 | -26.2
Cc1nn(C)c(Cl)c1NC(=O)OCc1ccc(Cl)cc1Cl | 6.4 | 23382* | 3.7 | 3.2 | -0.5 | 11.4 | -19.5
CC1CCC(N2CCN(c3ncccn3)CC2)CC1 (stereo unspecified) | 16.6 | 10691 | 1.6 | 8.2 | 14.4 | 3.0 | -10.8
CC1=NN(C(C#N)c2ccccc2O)C(C)(C)C1 (stereo unspecified) | 1.4 | 3508 | -4.6 | -3.8 | -4.6 | 1.0 | -11.2
COCCNC(=S)NN=Cc1ccc(OCc2ccc(C(=O)OC)cc2)c(OC)c1 | · | · | -1.5 | -0.6 | 2.0 | 4.9 | ·
CN1C(=O)COc2ccc(C(=O)c3ccccc3C(=O)O)cc21 | 7.6 | 2497 | -2.8 | 5.6 | 14.4 | 2.9 | -15.2
COc1ccc(N2CCN(c3cc(C)c4ccccc4n3)CC2)cc1 | 0.7 | 3154 | 9.6 | 12.5 | 2.0 | -5.2 | -2.3
O=C(Nc1ccc(CN2CCCCC2)cc1)c1cc(Br)ccc1Cl | -0.9 | 3799 | 6.0 | 8.4 | 5.1 | 1.3 | -18.3
CC(Nc1ccc(S(=O)(=O)N2CCN(C)CC2)cc1[N+](=O)[O-])c1ccccc1 (stereo unspecified) | · | 4494 | -1.5 | -0.1 | -1.5 | -0.2 | -34.4
O=C(CNC(=O)C12CC3CC(CC(C3)C1)C2)NN=Cc1ccco1 | · | · | 9.7 | 13.6 | 8.3 | 0.6 | ·
CCOc1ccccc1Nc1ncnc2ccc(Br)cc12 | -7.7 | 4224 | 2.5 | 6.8 | -5.4 | 10.0 | -7.3
CC(O)CNCCNCc1cccs1 (stereo unspecified) | 0.3 | 4103 | 5.6 | 11.7 | 2.0 | -3.6 | -26.6
CC(C)c1ccc(NC(=O)COC(=O)CCC(=O)c2cccs2)cc1 | 3.4 | 9872 | 11.5 | 11.5 | 10.2 | 5.1 | -18.6
CCN(C(=O)CSc1nc2ccccc2c(=O)n1-c1ccc(C)cc1)C1CCS(=O)(=O)C1 (stereo unspecified) | 8.3 | 4383 | -0.4 | 1.2 | -5.9 | -3.0 | 0.5
COc1ccccc1-n1c(C)nc2cc(C(=O)NCc3ccc4c(c3)OCO4)ccc21 | 7.5 | 2514 | 4.2 | 10.6 | 3.9 | 2.3 | -24.5
COc1ccc(N2C(=O)CC(N3CCN(c4ccc(Cl)cc4)CC3)C2=O)cc1 (stereo unspecified) | -6.5 | 3480 | 3.4 | 0.9 | 0.0 | 1.4 | 3.7
CCc1nn(CC(=O)NCCCN(Cc2ccccc2)C(C)C)c(=O)c2cc3sccc3n12 | · | 8979 | 0.1 | 6.3 | -1.5 | -0.4 | -11.6
CC(NC(=O)CN1CCCC1)C12CC3CC(CC(C3)C1)C2 (stereo unspecified) | -13.4 | 15284 | 8.5 | · | · | 4.7 | -6.3
O=C(Cn1ccc2ccccc2c1=O)Nc1ccc2c(c1)OCO2 | 5.8 | 4965 | 3.3 | · | · | -2.3 | -11.0
C/C(N)=C(/C#N)C(=O)COC(=O)c1ccccc1O | -1.5 | 2506 | 2.4 | 9.4 | 6.1 | 3.8 | -8.6
C=CCN1C(=O)C(O)=C(C(C)=O)C1c1ccccc1F (stereo unspecified) | -5.7 | 3734 | 0.1 | 3.7 | 10.7 | 4.2 | -25.8
Cc1nnc(SCCN2C(=O)c3ccccc3C2=O)[nH]c1=O | 5.3 | 5700 | 5.6 | · | · | 1.8 | 0.5
Cc1ccc2cc(CN(Cc3ccco3)C(=O)NCc3ccccc3)c(=O)[nH]c2c1C | 4.3 | 2847 | -7.7 | 17.7 | 12.2 | -7.5 | -18.0
CCn1nc(C)cc1C(=O)Sc1cccc(Br)c1 | 8.1 | 3551 | 70.3 | -3.8 | 13.9 | 11.3 | -12.9
NS(=O)(=O)c1ccc(CCNC(=O)C2(S(=O)(=O)c3ccc(Cl)cc3)CC2)cc1 | 6.8 | 3868 | 0.7 | -3.5 | -3.9 | 3.6 | -14.7
COc1ccc(S(=O)(=O)N2CCC(C(=O)NC(c3nc4ccccc4[nH]3)C(C)C)CC2)cc1 (stereo unspecified) | · | 8710 | 17.8 | -0.6 | 5.3 | 1.4 | -13.6
COc1ccccc1C(=O)Nc1ccc2c(c1)CCCN2C(=O)c1ccccc1 | 24.2 | 5251 | 2.3 | 2.8 | 3.4 | 3.8 | -36.5
Cc1cc(C(F)F)n2nc(C(=O)O)nc2n1 | -10.2 | 6520 | 0.3 | 4.9 | -4.4 | -0.4 | -10.3
CN(C)CCOCCOc1ccc(Cl)cc1C(C)(C)C | -7.5 | 4477 | -0.3 | 10.0 | 17.3 | -1.5 | 5.8
Cc1cc(N(C)/N=C/c2ccccc2O)nc(-c2ccccc2O)n1 | -19.1 | 3910 | · | · | · | · | -18.3
O=C(Cc1cccs1)N(CC1CCCO1)C1(C(=O)NC2CCCC2)CCCCC1 (stereo unspecified) | -1.0 | 3290 | 9.8 | 9.7 | 10.7 | 1.5 | -6.1

More results:
SMILES | BJeLR viability | Autofluor counter | ugtP null kill | Mtb hypoxia inh | Mtb hypoxia inh growth | Sa RN4220 lethal | PrP 5UTR inh
Cn1ccnc1SCC(=O)c1ccc([N+](=O)[O-])cc1 | -0.5 | 3404 | 1.8 | 15.7 | 3.6 | 25.5 | -25.7
CC(C)c1ccc(-c2csc3nc[nH]c(=O)c23)cc1 | -6.1 | 4043 | -8.1 | -4.9 | 9.0 | 7.9 | -21.8
COc1ccc(NC(=O)CSc2ccc3ccccc3c2)cc1S(=O)(=O)N1CCCCC1 | -1.4 | 2418 | 7.9 | 3.4 | 3.2 | 5.7 | -25.1
COc1ccc(CCNC(=O)CN(C)S(=O)(=O)c2ccc(Br)s2)cc1OC | -2.2 | 2097 | 2.4 | 4.3 | 1.0 | 2.7 | -11.4
CN(C)CCCNC(=O)c1cc(C(=O)c2c(Cl)cccc2Cl)c[nH]1 | 8.9 | 3162 | 2.8 | 5.0 | -3.9 | -0.1 | -1.7
CN=C(Nc1cc(C)nn1-c1ccccc1)c1ccccc1 | -4.0 | 6841 | 3.3 | 7.0 | -6.3 | 2.5 | -23.4

5 structures out of the list, arranged by SMILES length, smallest number first:
SMILES | BJeLR viability | Autofluor counter | ugtP null kill | Mtb hypoxia inh | Mtb hypoxia inh growth | Sa RN4220 lethal | PrP 5UTR inh
CN=C(Nc1cc(C)nn1-c1ccccc1)c1ccccc1 | -4.0 | 6841 | 3.3 | 7.0 | -6.3 | 2.5 | -23.4
Cc1cc(N(C)/N=C/c2ccccc2O)nc(-c2ccccc2O)n1 | -19.1 | 3910 | · | · | · | · | -18.3
CN(C)CCCNC(=O)c1cc(C(=O)c2c(Cl)cccc2Cl)c[nH]1 | 8.9 | 3162 | 2.8 | 5.0 | -3.9 | -0.1 | -1.7
O=C(Cc1cccs1)N(CC1CCCO1)C1(C(=O)NC2CCCC2)CCCCC1 (stereo unspecified) | -1.0 | 3290 | 9.8 | 9.7 | 10.7 | 1.5 | -6.1
COc1ccc(NC(=O)CSc2ccc3ccccc3c2)cc1S(=O)(=O)N1CCCCC1 | -1.4 | 2418 | 7.9 | 3.4 | 3.2 | 5.7 | -25.1
